Bioassay records as filed in PubChem.
Ba CapD inh: blocks the Bacillus anthracis CapD enzyme. z-score (concentration not given with the values). purified CapD enzyme, fluorescence intensity read-out; hits give low values; some hits fall short of the stated cut. actives 0.23% (n = 140,000). AID 492967;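 active = z-score under -4 in either of two replicates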;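 note: stock transfer was 100 nL into about 40 µL; score is relative to mean and spread of the plate; one replicate is shown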
AID504770: E. coli YBA685 growth inhibition, screen for V. cholerae RctB inhibitors. E. coli YBA685 rctB-dependent plasmid, OD600 growth, 3 h; hits give low values. z-score (no concentration beside the values). actives 0.27% (n = 130,000). AID 504770;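 active = z-score under -2 on both plates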;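 note: wells of about 30 µL received 100 nL stock; score is relative to mean and SD of the test wells; the first replicate is given; strong numbers were not always called active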
Active calls of the source: *; nt = no result given; & = joins results of further samples. No enrichment for hits, and some 0.37% of all compounds hit somewhere here.

structure,Ba CapD inh,AID504770
NC(=O)CSc1cn(CC(=O)N2CCOCC2)c2ccccc12,69,-1.2
O=S(=O)(Cc1ccc(Cl)cc1Cl)CC(O)Cn1ccc(C(F)(F)F)n1 (centres undefined),-0.78,-1.1
O=C(NC(Nc1ccccc1)(C(F)(F)F)C(F)(F)F)c1ccccc1,-0.71,-1.5
O=C(O)c1ccc(NC(=O)C2CC(=O)N(Cc3ccc4c(c3)OCO4)C(=Nc3ccc(F)cc3)S2)cc1 (centres undefined),0.17,nt
O=c1[nH]c(-c2ccc(Cl)cc2)nc2ccc(N3CCCC3)cc12,0.42,2
C/C(=N\NC(=O)c1cc(-c2ccco2)nc2ccccc12)c1cccnc1,nt,-0.1
CCOC(=O)c1csc(-c2ccc3nonc3c2)n1,2.1,-0.4
O=C(CCS(=O)(=O)Cc1ccccc1)Nc1ccc(F)cc1F,2.9,0.2
COC(=O)c1ccc(COC(=O)c2c(-c3ccccc3)noc2C)o1,nt,-0.05
Cc1ccccc1COC(=O)NNC(=O)CC1Sc2ccccc2NC1=O (centres undefined),0.21,nt
CC(C)CN1C(=O)c2ccc(C(=O)NCc3ccccn3)cc2C1=O,-0.36,-1
CCN(CC)C(=O)CSc1nc2cc(Cl)ccc2o1,nt,-1.1
CN1c2ccccc2-c2ccccc2C12C=Cc1cc(N=Nc3ccccc3)ccc1O2 (centres undefined),0.27,nt
O=C1CCC/C(=N\NC(=S)NCCc2ccccc2)C1,nt,0.05
CC(=O)OCc1cc(=O)n2oc(C)cc2n1,0.65,-0.1
C/C=C/C(=O)Nc1ccc(Cl)c(Cl)c1,nt,-0.15
O=C(/C=C/Nc1cccc(C(F)(F)F)c1)c1cnc(-c2ccccc2)s1,-0.89,nt
O=S(=O)(c1ccc(F)cc1)N(CCCN1CCOCC1)Cc1cccs1,-0.51,-1.3
CCCCOc1cccc2c1CCN(C)C2=O,nt,-0.45
Cc1ccc(C(C(=O)NC2CCCCC2)N(C(=O)C2COc3ccccc3O2)c2ccc3c(c2)OCO3)o1 (centres undefined),nt,-0.55
CCOC(=O)NC1=C(C#N)C=Nc2ccccc2N1,-0.74,-0.35
Cn1c(SCC#N)nc2c(c1=O)C1(CCCCC1)Cc1ccccc1-2,nt,1.6
COc1ccc(N2CC(C(=O)NC3CC(C)(C)NC(C)(C)C3)CC2=O)cc1 (centres undefined),-0.02,0.95
COC(=O)c1sc(Nc2ccccc2)nc1C,21&11&31,-0.25&0.65&0.7
Cc1c(C(=O)NCCN2CCN(Cc3ccccc3)CC2)sc2nc3n(c(=O)c12)CCC3,0.73,1.1
Cc1cccc(NC(=O)CN2C(=O)CSC(C)C2=O)c1 (centres undefined),-0.23,-0.5
CC(C)CCNC(=O)c1ccc(CSc2nc3ccncc3n2Cc2ccccc2)cc1,-0.39,-0.95
COc1ccc([C@@H]2[C@@H](C(=O)C(C)(C)C)N3c4ccccc4C=C[C@@H]3C2(C#N)C#N)cc1OC,6.1,nt
O=C(CN1CCCC1c1cccs1)Nc1ccccc1C(=O)NC1CC1 (centres undefined),nt,0.45
COC(=O)C1=CN(Cc2ccc(Cl)cc2)C=C(C(=O)OC)C1c1cccs1,42,-0.35
CSc1sc(C(=O)NNC(=O)OCCc2ccc(N(C)C)cc2)cc1-c1nc(C)cs1,0.61,nt
Cc1c(C(=O)NCc2ccc3c(c2)OCO3)cnn1-c1ccc(F)cc1,0.83,1.1
O=S(=O)(c1cc(Cl)sc1Cl)N1CCN(Cc2ccc3c(c2)OCO3)CC1,-1.2,-0.1
CN1CCN(c2ccccc2NC(=O)c2cc3c(s2)-c2ccccc2OC3)CC1,-1.2,-0.45
Cc1cc(C)c2[nH]c(=O)c(CN(C(=O)Nc3ccccc3F)C3CC3)cc2c1,nt,0.25
Cc1nn(-c2ccccc2)c(C)c1CN1CCC(NC(=O)OCCc2cccc(Cl)c2)C1 (centres undefined),-0.65,nt
O=C(Cc1ccccc1)OCc1csc(-c2ccccc2)n1,-0.76,1.2
c1ccc(CNC2=NCCC2)nc1,nt,-1.8
Cc1cc(C(=O)OCC(=O)N2C(C)CCCC2C)c2ccccc2n1 (centres undefined),1.6,0.05
CC1SC(c2ccccc2)N(Cc2ccccc2)C1=O (centres undefined),nt,-0.9
COc1cccc(CN2CCN(Cc3ccccc3)CC2)c1,-0.12,0
CCCS(=O)(=O)c1csc(C(=O)OC)c1NNC(=O)C(C)C,0.28,-1
CN(c1ccccc1)c1nc(N2CCCC2)nc(-n2ccnc2)n1,0.19,-0.95
COCCOc1cc2nc[nH]c(=O)c2cc1OCCOC,0.99,0
COc1ccc(NC(=O)Nc2cn(C)c3ccccc23)c(OC)c1,nt,-0.7
O=C(COCCn1cc(-c2ccc(Cl)cc2)cn1)N1CCN(Cc2ccccc2)CC1,-0.73,nt
O=C(CN1CCCCC1)Nc1nnc(SCC(=O)N2c3ccccc3Sc3ccccc32)s1,0.74,nt
O=C(O)Cc1csc2nc(-c3ccccc3)cn12,1.2,-0.25
NC(=O)c1cc2c(s1)-c1cc(Cl)ccc1SC2,1.3,0.6
CC1(C)CC(=O)c2cc(C(=O)N3CC[N+](C)(C)CC3)c(=O)n(-c3ccc(Cl)cc3)c2C1,0.17,0.2
CCOc1cccc(/C=N/c2nnc(SC)s2)c1O,-0.82,-0.6
Cc1ccc(S(=O)(=O)N(C)c2ccc(OCC(=O)N3CCN(c4ncccn4)CC3)cc2)cc1,nt,0.8
COc1ccccc1NS(=O)(=O)c1ccc2oc(=S)n(CN3CCCC3)c2c1,nt,-0.75
CCOc1ccc2nc(SC3CC(=O)N(c4cc(OC)ccc4OC)C3=O)sc2c1 (centres undefined),-0.41,nt
O=C(NCc1cccnc1)C(C(=O)c1ccc(F)cc1)n1ccccc1=O (centres undefined),nt,-0.35
CC(Oc1ccc(Cl)cc1Cl)c1nc(-c2ccc(NC(=O)c3cccnc3)cc2)no1 (centres undefined),-0.84,0.15
Cc1ccc2oc(-c3ccccc3)c(C(=O)O)c(=O)c2c1,-0.73,-1
COc1ccc(N=C2SC(C(=O)N3CCN(c4ccccn4)CC3)CC(=O)N2C)cc1 (centres undefined),1.5,nt
O=C(Nc1ccc(F)c(F)c1)C1CCC1,-0.38,nt
CCn1nnc2c(Nc3ccc(Cl)c(Cl)c3)ncnc21,nt,-0.95

Molecules from the list above that contain an NH in an aromatic ring:
structure,Ba CapD inh,AID504770
O=c1[nH]c(-c2ccc(Cl)cc2)nc2ccc(N3CCCC3)cc12,0.42,2
Cc1cc(C)c2[nH]c(=O)c(CN(C(=O)Nc3ccccc3F)C3CC3)cc2c1,nt,0.25
COCCOc1cc2nc[nH]c(=O)c2cc1OCCOC,0.99,0

Random excerpt: 2 entries already listed.
structure,Ba CapD inh,AID504770
CC(C)CCNC(=O)c1ccc(CSc2nc3ccncc3n2Cc2ccccc2)cc1,-0.39,-0.95
COCCOc1cc2nc[nH]c(=O)c2cc1OCCOC,0.99,0

Going on with the list:
structure,Ba CapD inh,AID504770
O=C(Nc1ccc(F)cc1)Nc1ccc2[nH]c(=O)[nH]c2c1,nt,-0.45
S=C(NCc1ccco1)NC1CCCCC1,nt,-0.25
Cc1cc(NC(=O)CCCC(=O)c2ccccc2)n[nH]1,0.82,-1.8
Cc1noc(C)c1C(=O)NCc1ccc(S(N)(=O)=O)cc1,0.15,0.15
Ic1ccc(OCCCCn2ccnc2)cc1,0.52,-0.8
COc1ccc(NCC(=O)N/N=C2\CCCC(C)C2)cc1 (centres undefined),nt,-0.85
O=C(CCN1C(=O)C2C3C=CC(C3)C2C1=O)N1CCC2(CC1)OCCO2 (centres undefined),0.04,0.5
COc1ccc(/C(C)=N/O)cc1OC,0.21,nt
CC1=C(CCN2CCN(CCO)CC2)C(C)(C)CCC1,0.29,-0.05
COC(=O)c1ccc2c(=O)n(Cc3ccc(C(=O)NCCCN4CCC(C)CC4)cc3)c(=S)[nH]c2c1,0.32,nt
O=C1OC(c2ccccc2)=N/C1=C\c1cn(-c2ccccc2)nc1-c1cc2ccccc2o1,nt,-0.15
COc1cc(OC)nc(C(c2ccccc2)N2CCN(C(=O)NS(=O)(=O)c3ccc(C)cc3)CC2)n1 (centres undefined),0.02,nt
Cc1oc2nc[nH]c(=O)c2c1C(=O)NCCC(c1ccccc1)c1ccccc1,nt,-0.1
O=C1N(Cc2ccc(F)cc2Cl)c2ccccc2C12OCCCO2,-0.83,1.6
CCOC(=O)C1=C(N)N(c2ccc(F)cc2)C2=C(C(=O)CC(C)(C)C2)C1c1ccc(OC)c(OC)c1 (centres undefined),0.61,nt
C/C(=N/NC(=O)CCc1ccccc1)C1CC1,nt,-0.15
CCCCON1C(=O)c2cccc3cccc(c23)C1=O,nt,-0.25
Cc1nc2c(C(=O)NC3CC3)c[nH]n2c(=O)c1Cc1ccccc1F,-2.9,0.95
N#Cc1ccccc1COC(=O)COc1ccccc1C#N,nt,0.25
Nc1nc2c(F)cc(F)cc2s1,-0.33,nt
CCN(CC)C(=O)C1C(=O)NC23CCCCC2C1c1ccccc1O3 (centres undefined),-0.32,-0.75
CC12CCC(C(=O)N(c3ccccc3Cl)C1=O)C2(C)C (centres undefined),-0.34,nt
COc1ccc(C2C(C(=O)Nc3ccccc3F)c3ccccc3C(=O)N2C)cc1 (centres undefined),-0.35,1.2
CCN(c1ccccc1)S(=O)(=O)c1ccc(F)c(C(=O)Nc2cccc(Cl)c2)c1,-0.25,nt
O=C(NNc1nc2cc3c(cc2s1)OCCO3)c1ccc(F)cc1,nt,0.85
Cn1ccnc1SCC(=O)NC(=O)NCc1ccccc1,nt,0.3
CS(=O)Cc1cc(Cl)nc(-c2ccncc2)n1 (centres undefined),-0.52,-0.1
CCn1cc2nc(SCC(=O)NCc3ccccc3)n(Cc3ccc(OC)cc3)c(=O)c2n1,0.095,0.35
CCOc1cccc2cc(C(C)N)oc12 (centres undefined),nt,1
O=C(Nc1cc(N2CCCCC2)ncn1)NC1(C(F)(F)F)Oc2ccccc2O1,nt,-0.55
CSc1sc(C(=O)O)c(-c2ccccc2Cl)c1C#N,-0.035,0.8
N#CC(=NCc1ccc(Cl)cc1)C1=C(O)c2ccccc2C1=O,0.085,-0.25
CCCN(CCC)S(=O)(=O)Cc1ccccc1Cl,0.27,2.2
Cc1cccc2nc(CN3CCN(Cc4ccc5c(c4)OCO5)CC3)cc(=O)n12,nt,-0.2
CC(=O)c1ccc(S(=O)(=O)N2CCC(C#N)(c3ccccc3)CC2)cc1,0.62,nt
COc1ccc(NC(=O)c2ccco2)cc1NC(=O)c1cc2ccccc2o1,nt,3.1
Cc1cc2oc(C(=O)O)cc(=O)c2cc1C,nt,-0.35
O=C1/C(=C/c2ccc(Cl)cc2)C=C(c2ccccc2)N1c1ccccc1Br,0.39,nt
Cc1cc(C)c(C#N)c(SCc2[nH]nc3c2C(c2ccc(F)cc2)C(C#N)=C(N)O3)n1 (centres undefined),-1.2,nt
CCN(Cc1ccccc1)S(=O)(=O)c1cn(C)c(=O)n(C)c1=O,nt,-0.1
O/N=C/c1ccc2cccc(OCc3ccccc3)c2n1,29,-0.4
CCOC(=O)C(NC(=O)c1cccc(Cl)c1)(Nc1sc2c(c1C#N)CCC(C(C)(C)C)C2)C(F)(F)F (centres undefined),0.14,nt
Cc1ccc(S(=O)(=O)N/N=C/c2cc(C)n(-c3ccc(N(C)C)cc3)c2C)cc1,-0.08,1.1
COC(=O)c1sccc1NC(=O)Cc1noc2ccc(C)cc12,-3.6,-0.3
CC(C)(C)C(=O)Nc1c2c(nn1-c1cccc(Cl)c1)CSC2,nt,-0.2
Cc1ccc(C=C2C(=O)OC(C)(C)OC2=O)s1,0.035,0.45
CCOC(=O)c1nnn(-c2nonc2N)c1CN1CCCCCC1,-0.3,nt
Cc1ccc(OC(C)C(=O)NCCCN2CCOCC2)cc1C (centres undefined),0.88,0.65
Cc1c(Cl)cccc1NC(=O)c1cc(-c2ccco2)nc2ccccc12,2.7,0.65
CCSc1nc2sc3c(c2c(=O)n1-c1ccccc1)CCN(C(C)=O)C3,1.6,-0.6
COc1ccc(OC)c(NC(=O)CSc2nc3ccccc3c(=O)n2NC(=O)Cc2ccccc2)c1,-0.86,nt
CCN1Cc2ccccc2-n2cccc2C1C(=O)O (centres undefined),-0.52,nt
C=CCc1cccc(/C=N/NC(=O)c2ccccc2)c1O,-0.74,0.2
N#Cc1ccccc1S(=O)(=O)N1CCCC1c1ccc2c(c1)OCCCO2 (centres undefined),nt,-1.1
Cc1ccccc1NC(=S)N=Nc1c(O)n(CN2CCN(c3ccccc3)CC2)c2ccccc12,-2.2,1.4
Cc1cc(C)c2c(N)c(C(=O)NC3CCCC3)sc2n1,11,0.95
CCOC(=O)c1cc(CC)sc1/N=C/c1c(O)[nH]c(=O)[nH]c1=O,nt,-0.1
O=C1NCC2=C1C(c1ccccc1)Nc1ccccc1N2 (centres undefined),-0.1,0.1
CCC(=O)Nc1cc(C)c(O)c(-c2nc3cc(C)ccc3o2)c1,nt,0.05
